# FGF22 binding – shifts melting point of recombinant human FGF22; Q9HCT0; recombinant FGF22 thermal shift, SYPRO orange fluorescence; percent of sucrose octasulfate shift, DMSO zero; calls only at 9.99 µM; 340,000 compounds, 1.5% hits;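 active = melting point raised past a set limit in the mean and every replicate; three in four hits are not shown here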
# Target sequence (Q9HCT0 whole entry, looked up): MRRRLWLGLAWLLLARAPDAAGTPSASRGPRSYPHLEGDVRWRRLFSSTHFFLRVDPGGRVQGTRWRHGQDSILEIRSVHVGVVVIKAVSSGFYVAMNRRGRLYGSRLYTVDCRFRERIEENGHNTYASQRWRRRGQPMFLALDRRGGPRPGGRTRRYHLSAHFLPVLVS
# Calls only; i = inactive. Only part of the results is shown; rates above refer to the full screens.
# Start of the data: the first 4 records, to show the layout:
compound,FGF22 binding
CCC(=O)N1[C@H](CN(CC)C(=O)c2ccc(F)cc2)[C@H](c2ccccc2)[C@@H]1CO,i
Cc1cccc(S(=O)(=O)N(C)C[C@@H]2OCc3cn(nn3)CCCC(=O)N([C@@H](C)CO)C[C@@H]2C)c1,i
CCCN1[C@@H]2c3ccc(-c4ccncc4)c(=O)n3C[C@@H]2[C@@H](CO)[C@@H]1C(=O)NCCCN1CCOCC1,i
C[C@@H]1CN([C@H](C)CO)S(=O)(=O)c2ccc(-c3cccnc3)cc2O[C@@H]1CN(C)CC1CCOCC1,i

# The whole of this part, from the first entry:
compound,FGF22 binding
CCC(=O)N1[C@H](CN(CC)C(=O)c2ccc(F)cc2)[C@H](c2ccccc2)[C@@H]1CO,i
Cc1cccc(S(=O)(=O)N(C)C[C@@H]2OCc3cn(nn3)CCCC(=O)N([C@@H](C)CO)C[C@@H]2C)c1,i
CCCN1[C@@H]2c3ccc(-c4ccncc4)c(=O)n3C[C@@H]2[C@@H](CO)[C@@H]1C(=O)NCCCN1CCOCC1,i
C[C@@H]1CN([C@H](C)CO)S(=O)(=O)c2ccc(-c3cccnc3)cc2O[C@@H]1CN(C)CC1CCOCC1,i
CN(C)CC(=O)N1[C@H](CO)[C@@H](c2ccccc2)C12CN(C(=O)c1cccc(F)c1)C2,i
C[C@@H]1CN([C@H](C)CO)C(=O)c2cc(C#Cc3cccc(F)c3)cnc2O[C@@H]1CN(C)Cc1ccccn1,i
C[C@@H]1CCCCO[C@H](CN(C)C(=O)CCCN(C)C)[C@H](C)CN([C@@H](C)CO)C(=O)c2cc(NS(C)(=O)=O)ccc2O1,i
O=C(C[C@@H]1CC[C@@H](NC(=O)C2CC2)[C@H](CO)O1)NCc1ccncc1,i
CO[C@H]1CN(C)C(=O)c2cc(C#N)ccc2OCC[C@@H]2CC[C@@H](OC)[C@H](CN(C)C(=O)[C@@H]1C)O2,i
CCCNC(=O)N1[C@H](C#N)[C@@H](c2ccc(-c3ccccc3F)cc2)[C@H]1CO,i
C[C@@H]1CN([C@@H](C)CO)C(=O)Cc2cc(NC(=O)C3CCCCC3)ccc2O[C@H]1CN(C)C(=O)Nc1ccccc1,i
C[C@@H]1CN([C@H](C)CO)C(=O)c2cc(C#Cc3cccnc3)cnc2O[C@H]1CN(C)Cc1ccccc1,i
COc1ccc(S(=O)(=O)Nc2ccc3c(c2)CC(=O)N([C@@H](C)CO)C[C@H](C)[C@@H](CN(C)Cc2ccc4c(c2)OCO4)O3)cc1,i
C[C@@H]1CN([C@@H](C)CO)C(=O)c2cccc(NS(=O)(=O)c3cn(C)cn3)c2O[C@@H]1CN(C)S(C)(=O)=O,i
Cc1cccc(S(=O)(=O)N2CCCCN3[C@H](CO)[C@@H](c4ccc(C#C[C@H](C)O)cc4)[C@H]3C2)c1,i
C[C@H](CO)N1C[C@H](C)[C@@H](CN(C)S(=O)(=O)c2ccccc2)OCCCC[C@H](C)Oc2ccc(NS(=O)(=O)c3ccc(Cl)cc3)cc2C1=O,i
CO[C@H]1CN(C)C(=O)c2cc(NC(=O)C3CCOCC3)ccc2OC[C@@H](C)N(CC2CC2)C[C@@H]1C,i
COc1ccc(CN(C)C[C@@H]2OCCCC[C@H](C)Oc3ccc(NS(=O)(=O)c4cccs4)cc3C(=O)N([C@@H](C)CO)C[C@@H]2C)cc1,i
C[C@@H]1CN([C@@H](C)CO)C(=O)c2cccc(NC(=O)C3CCOCC3)c2O[C@H]1CN(C)C(=O)Nc1ccc(C(F)(F)F)cc1,i
C[C@H]1CN([C@@H](C)CO)C(=O)c2cc(C#Cc3ccccc3F)cnc2O[C@@H]1CN(C)C(=O)C1CCC1,i
O=C(C[C@H]1CC[C@H](NC(=O)C2CCOCC2)[C@H](CO)O1)Nc1nccs1,i
C[C@@H]1CCCCO[C@@H](CN(C)S(=O)(=O)c2ccc(Cl)cc2)[C@H](C)CN([C@H](C)CO)C(=O)c2cc(NC(=O)Nc3ccc(F)cc3)ccc2O1,i
COc1ccc(NC(=O)Nc2ccc3c(c2)C(=O)N([C@@H](C)CO)C[C@@H](C)[C@@H](CN(C)Cc2ccncc2)OCCCC[C@H](C)O3)cc1,i
CN(C)C(=O)c1cccc(-c2ccc([C@H]3[C@@H](C#N)N(C(=O)C4CC4)[C@H]3CO)cc2)c1,i
C[C@@H]1CCCCO[C@H](CN(C)S(C)(=O)=O)[C@H](C)CN([C@@H](C)CO)C(=O)c2cc(NC(=O)NC3CCCCC3)ccc2O1,i
C[C@H]1CN([C@@H](C)CO)C(=O)c2cc(-c3cccc(F)c3)cnc2O[C@H]1CN(C)S(C)(=O)=O,i
C[C@@H]1CN([C@@H](C)CO)C(=O)c2cc(-c3ccc(C#N)cc3)cnc2O[C@H]1CN(C)CC1CCCCC1,i
CCCNC(=O)[C@@H]1[C@@H](CO)[C@@H]2Cn3c(ccc(-c4ccccc4F)c3=O)[C@@H]2N1C(=O)CC,i
CC(C)C(=O)Nc1ccc2c(c1)C(=O)N(C)[C@@H]1CC[C@@H](CC(=O)NC3CCCC3)O[C@H]1CO2,i
Cc1ccccc1S(=O)(=O)NCC[C@H]1CC[C@@H](NC(=O)Nc2cccc(Cl)c2)[C@@H](CO)O1,i
COc1cccc(NC(=O)N[C@H]2C=C[C@@H](CC(=O)Nc3ccc(-c4ccccc4)cc3)O[C@H]2CO)c1,i
COc1ccc(S(=O)(=O)N(C)C[C@@H]2Oc3ccc(NC(=O)CCN4CCOCC4)cc3C(=O)N([C@@H](C)CO)C[C@@H]2C)cc1,i
C[C@@H]1CN([C@@H](C)CO)C(=O)c2cc(NC(=O)C3CC3)ccc2O[C@H]1CN(C)S(=O)(=O)c1ccc(F)cc1,i
C[C@H]1CN([C@@H](C)CO)C(=O)c2cccc(NS(=O)(=O)c3cccs3)c2O[C@@H]1CN(C)Cc1ccc(C(F)(F)F)cc1,i
CO[C@@H]1CN(C)C(=O)c2cc(NC(=O)Nc3cccc(Cl)c3)ccc2OC[C@@H](C)N(C)C[C@@H]1C,i
O=S(=O)(c1ccc(F)cc1)N1CCCCN2[C@H](CO)[C@H](c3ccc(-c4cncnc4)cc3)[C@@H]2C1,i
Cc1ccccc1-c1ccc([C@H]2[C@H](CO)N3CCCCN(S(=O)(=O)c4cn(C)cn4)C[C@@H]23)cc1,i
Cc1noc(C)c1NC(=O)N[C@@H]1CC[C@H](CC(=O)N2CCCCC2)O[C@@H]1CO,i
C[C@@H]1CCCCO[C@@H](CN(C)Cc2ccc(Cl)c(Cl)c2)[C@H](C)CN([C@@H](C)CO)C(=O)c2cc(NC(=O)C3CCCCC3)ccc2O1,i
CC(C)NC(=O)NCC[C@H]1CC[C@@H](NS(=O)(=O)c2ccc(Oc3ccccc3)cc2)[C@@H](CO)O1,i
C[C@@H]1CN([C@H](C)CO)C(=O)c2cc(-c3cncnc3)cnc2O[C@@H]1CN(C)Cc1ccccc1,i
C[C@H]1CN([C@@H](C)CO)C(=O)c2cc(/C=C/c3ccccc3)cnc2O[C@H]1CN(C)S(=O)(=O)c1ccccc1F,i
CO[C@@H]1CN(C)C(=O)c2ccc(NC(=O)Nc3cccc(F)c3)cc2OC[C@H](C)N(C(C)=O)C[C@@H]1C,i
C[C@@H]1CN([C@@H](C)CO)C(=O)Cc2cc(NC(=O)CCN3CCOCC3)ccc2O[C@H]1CN(C)C(=O)Nc1ccccc1,i
C[C@@H]1CN([C@H](C)CO)C(=O)Cc2cc(NS(=O)(=O)c3ccc(Cl)cc3)ccc2O[C@@H]1CN(C)S(=O)(=O)c1cccs1,i
COc1ccc(S(=O)(=O)N[C@H]2CC[C@@H](CC(=O)N3CCC(Cc4ccccc4)CC3)O[C@H]2CO)cc1,i
CO[C@@H]1CN(C)C(=O)c2ccc(NS(C)(=O)=O)cc2OC[C@@H](C)N(Cc2nccs2)C[C@H]1C,i
C[C@@H]1CN([C@@H](C)CO)C(=O)Cc2cc(NS(=O)(=O)c3ccc(Cl)cc3)ccc2O[C@H]1CN(C)C,i
O=C(C[C@H]1CC[C@H](NC(=O)Nc2cc(F)ccc2F)[C@H](CO)O1)NCc1ccc2c(c1)OCO2,i
C[C@@H]1CN([C@H](C)CO)S(=O)(=O)c2ccc(-c3ccc(F)cc3)cc2O[C@@H]1CN(C)C,i

# (list continues)
compound,FGF22 binding
COc1ccc(C(=O)Nc2ccc3c(c2)OC[C@H](C)N(C(C)=O)C[C@H](C)[C@@H](OC)CN(C)C3=O)cc1,i
C[C@H]1CN([C@@H](C)CO)C(=O)c2cc(/C=C/c3ccccc3)cnc2O[C@H]1CN(C)Cc1cccc(C(=O)O)c1,i
C[C@@H]1CN([C@@H](C)CO)C(=O)c2cc(N(C)C)ccc2O[C@@H](C)CCCCO[C@@H]1CN(C)C,i
CC(C)NC(=O)Nc1ccc2c(c1)C(=O)N([C@@H](C)CO)C[C@@H](C)[C@@H](CN(C)S(=O)(=O)c1ccc(Cl)cc1)OCCCC[C@H](C)O2,i
CCCNC(=O)C[C@@H]1CC[C@@H]2[C@@H](COc3ccc(NC(=O)c4ccc5c(c4)OCO5)cc3C(=O)N2C)O1,i
O=C(C[C@H]1C=C[C@@H](NC(=O)c2ccccn2)[C@H](CO)O1)NCc1cccc(F)c1,i
O=C(C[C@@H]1C=C[C@@H](NC(=O)C2CC2)[C@@H](CO)O1)NC1CCC1,i
O=C(C[C@H]1C=C[C@@H](NC(=O)Nc2ccc(C(F)(F)F)cc2)[C@@H](CO)O1)NCc1cc(F)cc(F)c1,i
COc1ccc(NC(=O)Nc2ccc3c(c2)CC(=O)N([C@@H](C)CO)C[C@@H](C)[C@H](CN(C)S(=O)(=O)c2cccs2)O3)cc1,i
C[C@@H]1CCCCO[C@@H](CN(C)Cc2ccc(Cl)c(Cl)c2)[C@@H](C)CN([C@H](C)CO)C(=O)c2cc(NC(=O)c3ccccc3)ccc2O1,i

# The listing continues.
SMILES	FGF22 binding
CCCNC(=O)N1CC2(C1)[C@@H](c1ccccc1)[C@@H](CO)N2C(=O)CC1CC1	i
C[C@@H]1CN([C@H](C)CO)C(=O)c2cc(NC(=O)CCCN(C)C)ccc2O[C@@H]1CN(C)C(=O)Nc1cccc2ccccc12	i
COc1ccc(-c2ccc([C@@H]3[C@@H](CO)N4CCCCN(CC5CCOCC5)C[C@H]34)cc2)cc1	i
C[C@H](CO)N1C[C@H](C)[C@H](CN(C)C(=O)C2CCOCC2)Oc2cc(-c3ccc(F)cc3)ccc2S1(=O)=O	i
N#C[C@H]1[C@H](c2ccccc2C2=CCCCC2)[C@H](CO)N1C(=O)c1ccccn1	i
COc1ccc(CN(C)C[C@H]2OCCCC[C@@H](C)Oc3ccc(NC(=O)Nc4cccc5ccccc45)cc3C(=O)N([C@H](C)CO)C[C@@H]2C)cc1	i
C[C@@H]1CN([C@H](C)CO)C(=O)c2cccc(NC(=O)CCCCCC(=O)Nc3ccccc3N)c2O[C@H]1CN(C)Cc1ccc(Cl)c(Cl)c1	i
COc1ccc(C#Cc2ccc3c(c2)[C@@H]2[C@@H](CCN2C(=O)CN2CCOCC2)[C@H](CO)N3C)cc1	i
C[C@@H]1CN([C@H](C)CO)C(=O)Cc2cc(NC(=O)Cc3cn(C)c4ccccc34)ccc2O[C@@H]1CN(C)S(=O)(=O)c1cn(C)cn1	i
C[C@@H]1CCCCO[C@@H](CN(C)C(=O)NC2CCCCC2)[C@@H](C)CN([C@@H](C)CO)C(=O)c2cc(NS(=O)(=O)c3cccs3)ccc2O1	i
O=C(C[C@@H]1C[C@@H]2c3cc(NC(=O)Nc4ccc(C(F)(F)F)cc4)ccc3O[C@@H]2[C@H](CO)O1)NCc1cccnc1	i
C[C@@H]1CN([C@@H](C)CO)C(=O)c2cc(NS(C)(=O)=O)ccc2O[C@@H](C)CCCCO[C@@H]1CN(C)S(=O)(=O)c1ccc(Cl)cc1	i
C[C@H](CO)N1C[C@H](C)[C@H](CN(C)C)Oc2ncc(-c3ccc(C(=O)N(C)C)cc3)cc2C1=O	i
C[C@@H]1CN([C@H](C)CO)C(=O)c2cccc(NS(=O)(=O)c3ccc(Cl)cc3)c2O[C@@H]1CN(C)S(=O)(=O)c1ccc(F)cc1	i
COCC#Cc1ccc2c(c1)O[C@@H](CN(C)C(=O)Nc1ccc(OC)cc1)[C@@H](C)CN([C@H](C)CO)S2(=O)=O	i

# Reprinted at random: 2 entries already listed
SMILES	FGF22 binding
COCC#Cc1ccc2c(c1)O[C@@H](CN(C)C(=O)Nc1ccc(OC)cc1)[C@@H](C)CN([C@H](C)CO)S2(=O)=O	i
N#C[C@H]1[C@H](c2ccccc2C2=CCCCC2)[C@H](CO)N1C(=O)c1ccccn1	i

# (list continues)
SMILES	FGF22 binding
CCCNC(=O)N1CC2(C1)CN(C(=O)c1ccncc1)[C@@H](CO)c1[nH]c3cc(OC)ccc3c12	i
O=C(Nc1ccccc1C(=O)NCC1CC1)c1cccs1	i
CCCNC(=O)N1[C@@H]2CNC[C@H]1C2c1ccc(-c2ccc(C)cc2)cc1 (stereo partly specified)	i
CC(C)NC(=O)Nc1ccc2c(c1)CC(=O)N([C@H](C)CO)C[C@H](C)[C@H](CN(C)Cc1ccc(-c3ccccc3)cc1)O2	i
C[C@H]1CN([C@@H](C)CO)C(=O)Cc2cc(NC(=O)Nc3ccc(F)cc3)ccc2O[C@H]1CN(C)S(=O)(=O)c1ccc(F)cc1	i
C[C@H]1CN([C@@H](C)CO)C(=O)Cc2cc(NC(=O)CCCCCC(=O)Nc3ccccc3N)ccc2O[C@@H]1CN(C)Cc1ccccc1	i
C[C@H]1CN([C@@H](C)CO)C(=O)Cc2cc(NC(=O)Cc3ccccc3)ccc2O[C@@H]1CN(C)Cc1ccc(-c2ccccc2)cc1	i
COc1ccccc1NC(=O)N1CCCCN2[C@@H](CO)[C@H](c3ccc(-c4cccc(C#N)c4)cc3)[C@@H]2C1	i
O=C(C[C@@H]1CC[C@@H]2[C@H](COC[C@H](O)CN2Cc2ccc(Oc3ccccc3)cc2)O1)N1CCN(c2ccccc2)CC1	i
C[C@@H]1CN([C@H](C)CO)C(=O)c2cc(NS(=O)(=O)c3cccs3)ccc2O[C@H]1CN(C)S(=O)(=O)c1ccc(F)cc1	i

# Source: PubChem BioAssay
